Bst PK mod – pyruvate kinase (B. stearothermophilus) modulation; 1.2% of 51,000 active; AID 361; partly purified Bacillus stearothermophilus pyruvate kinase, luminescence ATP production; ribose 5-phosphate activator present at AC10; Potency, µM; in the data active means potency below about 11 µM; inconclusive means mostly about 12 µM to 25 µM; inactive means weaker than that;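 the screen sought inhibitors and activators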;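 also: potency is read from the fitted curve at half-maximal effect; scaled between full activation by ribose 5 phosphate and full inhibition by luteolin; about four in five hits inhibit and the cells do not say which; series up to 57 µM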
YjeE inh – YjeE (TsaE) inhibition, E. coli | P0AF67 | purified YjeE, fluorescence polarisation of a bound ADP probe | Potency, µM | 0.05% of 71,000 active | AID 605; active = well fitted falling curve; inconclusive = weaker or top-dose-only fall, or a rising curve; inactive = flat or poorly fitted curve;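 also: top concentration of the series not given in the record; excess ADP was the control for the full effect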
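Purified YjeE (10 uM) with BODIPY Texas Red-labeled ADP probe (2 uM); compounds pin-transferred, 15 min at room temperature. Binding inhibition read as decreased fluorescence polarization; ADP titration as control.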
Active calls of the source: *; i = inactive; ? = inconclusive; . = no result given. This is a subset (hit frequency here may not be typical).

SMILES	Bst PK mod	YjeE inh
C=CCn1c(SCC(=O)Nc2ccccc2)nnc1-c1cccc(S(=O)(=O)N2CCOCC2)c1	>57	i
O=C(Nc1cnn(Cc2ccc(F)cc2)c1)c1cc(-c2cccs2)on1	>57	i
COc1ccc(Br)cc1S(=O)(=O)n1ccnc1C	>57	i
Cc1n[nH]c(C)c1S(=O)(=O)N1CCCC(C(=O)NC2CCCc3ccccc32)C1 (centres undefined)	.	i
CCN(CC)CCCNC(=O)C1c2ccccc2C(=O)N(C)C1c1ccc(OC)cc1 (centres undefined)	>57	i
Cc1cc(C)nc(NS(=O)(=O)c2ccc(NC(=O)c3cccs3)cc2)n1	.	i
S=C1NCN2CCN(CC2)CNC(=S)C(=S)NCN2CCN(CC2)CNC1=S	.	i
Cc1cccc(CSc2ncnc3nc[nH]c23)c1	.	i
C[C@]1(c2ccccc2)OC(C(=O)O)=CC1=O	.	i
CCCOc1ccc(N2C(=O)CC(NCCCN3CCC(C(N)=O)CC3)C2=O)cc1 (centres undefined)	>57	i
O=C(Nc1cccc(F)c1)N1CC[C@@]2(CCCN(C(=O)c3cc(C(F)(F)F)cc(C(F)(F)F)c3)C2)C1	.	i
CC1(C(=O)O)CCC(C(=O)NC2CCCCCC2)C1(C)C (centres undefined)	>26	.
Cc1nc(SCCCSc2n[nH]c(C)n2)n[nH]1	>57	i
Cc1nn(-c2ccccc2)c2c1C1(C(=O)N(C)c3ccccc31)N(c1ccccc1)C(=O)N2 (centres undefined)	>57	i
Cc1csc(NC(=O)CN(C)S(=O)(=O)c2cccc3cccnc23)n1	.	i
NCCC[C@@H](CC(=O)N[C@@H]1CCCC[C@H]1C(=O)N[C@H](CC(=O)N[C@@H](CCC(=O)O)CC(=O)O)Cc1ccccc1)NC(=O)C[C@H](Cc1c[nH]c2ccccc12)NC(=O)[C@@H]1CNCC[C@H]1N	.	i
O=C(Nc1ccccc1)N1CC2(CCN(C(=O)c3cccc(F)c3)CC2)C1	.	i
CC(=O)N1CCc2cc(S(=O)(=O)NC(CC(C)C)C(=O)Nc3cc(C(=O)O)ccc3C)ccc21 (centres undefined)	>57	i
OC(COc1ccccc1)Cn1cc(Br)cn1 (centres undefined)	>57	i
CC(C)OC(=O)CCCN1C(=O)c2ccc(N)cc2C1=O	.	i
CC(=O)NC1(c2cccc(F)c2)CCN(CC(=O)NC2CCCCC2)CC1	>57	i
Cn1c(-n2c(CCCN3C(=O)c4ccccc4C3=O)nc3ccccc3c2=O)nc2ccccc21	.	i
COc1ccccc1N1C(=O)C2CC(C)=C(C)CC2C1=O (centres undefined)	>57	i
COc1cc(C)c(C(C)C)cc1S(=O)(=O)N1CCOCC1	>57	i
COCCCNC(=O)CCCn1c(=O)c2ccccc2n(CC(=O)Nc2c(C)cccc2C)c1=O	>57	i
COc1ccc(S(=O)(=O)Cc2ccc(C(=O)N3CCOCC3)o2)cc1	.	i
CC12CCC(C(=O)NCc3ccc4c(c3)OCO4)(CC1=O)C2(C)C (centres undefined)	>57	i
OCCOCCNc1ncnc2c1cnn2-c1ccc(Cl)cc1	11*	.
O=C(CCS(=O)(=O)c1ccc(Br)cc1)N1CCN(c2ccccc2F)CC1	>57	i
COc1ccc(-c2nc(C)sc2CC(=O)O)cc1	>57	i
Cc1cc(NC(=O)C2CC=CCC2C(=O)O)no1 (centres undefined)	>57	i
CCOc1ccccc1NC(=O)C1CCCN1C(=O)OCc1ccccc1 (centres undefined)	>57	i
CCOn1c(=O)c(-c2cc3ccccc3o2)[n+]([O-])c2ccccc21	.	i
COc1ccc(Br)cc1C1SCCN1S(C)(=O)=O (centres undefined)	>57	i
c1ccc(/C(=N/Nc2nc3ccccc3s2)c2ccccn2)cc1	.	i
NCCNc1cccc2ccccc12	.	i
CCN1C(=O)c2ccccc2S(=O)c2ccc(C(=O)N3CCCC3)cc21 (centres undefined)	.	i
Cc1nc(N2CCN(Cc3ccc4c(c3)OCO4)CC2)nc2c1C(=O)CC(c1ccco1)C2 (centres undefined)	>57	i
CC(C)Sc1nc2c(c(=O)n1C)SC(C)C2 (centres undefined)	.	i
CCOc1ccc(S(=O)(=O)N(C)C)cc1-c1nc2c(C(C)(C)C)nn(C)c2c(=O)[nH]1	>26	.

Gathered by group, those above containing fluorine (5)
SMILES	Bst PK mod	YjeE inh
O=C(Nc1cnn(Cc2ccc(F)cc2)c1)c1cc(-c2cccs2)on1	>57	i
O=C(Nc1cccc(F)c1)N1CC[C@@]2(CCCN(C(=O)c3cc(C(F)(F)F)cc(C(F)(F)F)c3)C2)C1	.	i
O=C(Nc1ccccc1)N1CC2(CCN(C(=O)c3cccc(F)c3)CC2)C1	.	i
CC(=O)NC1(c2cccc(F)c2)CCN(CC(=O)NC2CCCCC2)CC1	>57	i
O=C(CCS(=O)(=O)c1ccc(Br)cc1)N1CCN(c2ccccc2F)CC1	>57	i

Later entries.
SMILES	Bst PK mod	YjeE inh
Cc1cccc(N(C)S(=O)(=O)c2ccc3[nH]c(=O)c(=O)[nH]c3c2)c1	.	i
COc1cc(NS(=O)(=O)c2ccc(NC(=O)C34CC5CC(CC(C5)C3)C4)cc2)ncn1	.	i
Clc1ccccc1CNCC1CCC(CNCc2ccccc2Cl)CC1 (centres undefined)	.	i
CC(C)CCSc1nc2c(c(=O)[nH]c(=O)n2C)n1CCc1ccccc1	>57	i
Oc1c(Cl)cc(Cl)cc1CNc1ccc(Br)cn1	>26	.
CCOc1cccc(-c2nnc3sc(-c4ccc(C)cc4)nn23)c1	>26	.
CCOC(=O)C1=C(Nc2ccccc2)OCC1=O	>57	i
CCOC(=O)C1=C(C)NC(SCc2cc(=O)[nH][nH]2)=C(C#N)C1c1cccs1 (centres undefined)	>57	i
Cc1cc(NC(=O)C2COc3ccccc3O2)no1 (centres undefined)	.	i
Cc1ccc2nc(NC3=NCN(Cc4cccnc4)CN3)nc(C)c2c1	>57	i
NS(=O)(=O)c1cc2c(cc1Cl)NCNS2(=O)=O	>26	i
CN1C2CCC1CC(OC(=O)c1c[nH]c3ccccc13)C2 (centres undefined)	>57	i
O=S(=O)(c1ccc(F)cc1)N(CCO)CC(O)Cn1c2ccccc2c2ccccc21 (centres undefined)	>57	i
CC(=O)NC1CCN(C(=O)N2CCCC2)CC1	>57	i
COc1ccc(CN2CCCC(C(=O)N3CCCC3)C2)cc1 (centres undefined)	>57	i
Cc1ccc(-c2nnc3n2N=C(c2ccc(Br)cc2)CS3)cc1	.	i
O=C(NCN1CCc2ccccc2C1)c1ccccc1	>57	i
CCOC(=O)c1cccc(NC(=O)CSc2nnc(COc3ccc(Cl)cc3)o2)c1	>57	i
O=C(CCCN1C(=O)c2ccccc2C1=O)Oc1ccc(F)cc1	>57	i
Cc1cc(C(F)(F)F)n2ncc(-c3ccccc3)c2n1	.	i

Entries of single compounds as entered above. Order of values: Bst PK mod	YjeE inh
O=S(=O)(c1ccc(F)cc1)N(CCO)CC(O)Cn1c2ccccc2c2ccccc21 (centres undefined) is listed as >57	i
c1ccc(/C(=N/Nc2nc3ccccc3s2)c2ccccn2)cc1 is listed as .	i

(further entries)
SMILES	Bst PK mod	YjeE inh
Cn1ccnc1	.	i
CCSc1nnc(NC(=O)C(C)(C)C)s1	.	i
CCN(CC)CCCN1C(=O)C(O)=C(C(=O)c2sc(C)nc2C)C1c1ccc(C)o1 (centres undefined)	>57	i
COc1ccc(Cl)cc1NC(=O)c1cnc2sccn2c1=O	.	i
Cc1ccc(S(=O)(=O)N(C)CC(=O)OCc2nnc(-c3ccccc3)o2)cc1	>57	i
CCN(CCCNC(=O)CCNC(=O)Cn1ccc2ccccc2c1=O)c1ccccc1	>57	i
CCCn1c2c(c(O)c(C(=O)Nc3ccc(OC)cc3)c1=O)CCCC2	>57	i
O=C(c1ccncc1)N1CCC2(CCCN(C(c3ccccc3)c3ccccc3)C2)CC1	.	i
Cc1ccc(-c2nn(CC(=O)O)c(=O)c3ccccc23)cc1	.	i
COc1ccc(CNC(=O)C2CC(c3ccc(F)cc3)=NO2)cc1 (centres undefined)	>57	i
CC(=O)Nc1ccc(NS(=O)(=O)C(F)(F)F)cc1	.	i
CCOC(=O)c1ccc(Nc2cc(C)nc3ncnn23)cc1	?	i
CC(C)COC(=O)Nc1ccccc1C(=O)N1CCOCC1	>57	i
CCCCn1nnc(NC(=O)COc2cc(C)ccc2C(C)C)n1	>57	i
CCOC(=O)NC1(C(F)(F)F)C(=O)NC(C)=C1C(=O)OC (centres undefined)	>57	i
CCOC(=O)C1CCCN(C(=O)c2ccc(CS(=O)(=O)Cc3ccccc3C)o2)C1 (centres undefined)	>57	i
COc1ccccc1OCC(=O)Nc1ccc(S(=O)(=O)NC(C)=O)cc1	.	i
CCOC(=O)C1CCN(C(=O)CN(Cc2ccc(Cl)cc2)S(C)(=O)=O)CC1	>57	i
Cc1ccc(C)c(OCC(=O)Nc2cc(C)on2)c1	.	i
Cc1ccc(C(=O)NC2CCN(C(=O)N3CCOCC3)CC2)cc1	>57	i
COc1cc(S(=O)(=O)N2CCCCC2)ccc1NC(=O)c1ccc(F)cc1	>57	i
CCOC(=O)N1CCC(NC(=O)Cc2cn(C)c3ccccc23)CC1	>57	i
CC(C)NCC(O)COc1cccc2ccccc12 (centres undefined)	.	i
CCOc1cc(S(=O)(=O)Nc2ccccn2)ccc1F	>57	i
C=CCc1ccccc1OC[C@H](O)CNC(C)C	.	i
O=c1nc(NC2CCCC2)ccn1Cc1cccc(Br)c1	>57	i
COCCCNC(=O)CN1C(=O)CSc2ncccc21	.	i
Cc1nn(-c2ccccc2)c(C)c1C(=O)OCC(=O)NCc1ccco1	>57	i
CCc1nnc(NC(=O)c2cccc(S(=O)(=O)N3CCc4ccccc43)c2)s1	>57	i
Cc1cc(C)c2c(=O)[nH]n(C3CCOC(C)(C)C3)c2n1 (centres undefined)	.	i
O=C(CSc1ccc2nnc(-c3cccnc3)n2n1)N1CCc2ccccc21	.	i
CCOC(=O)c1c(C)c(C(=O)N2CCCCCC2)c(C)n1C	>57	i
O=C(Nc1cc(C(=O)N2CCOCC2)ccc1N1CCCC1)c1cccs1	>57	i
CCc1c(C)sc(NC(=O)c2cc(C3CC3)on2)c1C#N	.	i
COc1cc2c(cc1OC)CN(Cc1cc(=O)n3cc(C)ccc3n1)CC2	>57	i
CN(CCCNC(=O)C1CCC(=O)N1Cc1ccc(F)cc1)c1ccccc1 (centres undefined)	.	i
CC(C)C(NC(=O)OC(C)(C)C)C(=O)N1CCCC1C(=O)NC(Cc1ccccc1)C(N)=O (centres undefined)	>57	i
Cc1cc(N2CCCCC2)n2ncc(-c3ccc(Cl)cc3)c2n1	i	i
Cc1noc(C)c1-c1nccc(NCc2ccccc2)n1	.	i
COc1cccc(Nc2c(F)c(F)c(F)c(F)c2C(=O)O)c1	>57	i

Next section; it opens with the 2 that closed the last part.
SMILES	Bst PK mod	YjeE inh
Cc1noc(C)c1-c1nccc(NCc2ccccc2)n1	.	i
COc1cccc(Nc2c(F)c(F)c(F)c(F)c2C(=O)O)c1	>57	i
O=C(Nc1ccn(Cc2ccc(F)cc2)n1)c1ccncc1	>57	i
CCC(Sc1nc2cc3c(cc2c(=O)n1Cc1ccco1)OCO3)C(=O)Nc1cccc(OC)c1 (centres undefined)	>57	i
Cn1cccc1C(=O)N1CCC[C@@]2(CCN(C(=O)Nc3cccc(F)c3)C2)C1	.	i
COC(=O)c1cc(OC)c(OC)cc1NC(=O)c1cccnc1	>57	i
CC1CCc2ccccc2N1C(=O)c1cccs1 (centres undefined)	>57	i
Cn1c(SCc2ccccc2)nnc1C1CCCNC1 (centres undefined)	>57	i
CSc1oc(-c2ccccc2)nc1S(=O)(=O)c1ccc(C)cc1	.	i
CC(C)(C)NC[C@H](O)COc1cccc2c1CCC(=O)N2	.	i
O=c1sc(N2CCN(c3ccccc3F)CC2)nc2ccsc12	.	i
CCOC(=O)N1CCC(NC(=O)Cn2nc(Cc3ccncc3)c3ccccc3c2=O)CC1	.	i
Cc1cc(C(=O)COC(=O)CCc2nc3ccccc3s2)c(C)n1C	>57	i
Cc1ccc2ncccc2c1	.	i
CCCc1cc(=O)[nH]c(SC(CC)C(=O)Nc2ccccc2C#N)n1 (centres undefined)	>57	i
O=C(CSc1ncccc1C(=O)O)NCCC1=CCCCC1	>57	i
Cc1nn(-c2ccccc2)nc1CNC(=O)C(C)Cc1ccccc1 (centres undefined)	.	i
COc1ccc(C2C3=C(CC(c4ccco4)CC3=O)Nc3ccccc3N2C(C)=O)cc1 (centres undefined)	.	i
Cc1cc2cc(CCNC(=O)c3ccc(S(=O)(=O)N4CCOCC4)cc3)c(=O)[nH]c2cc1C	>57	i
CCCS(=O)(=O)N1CCCC(C(=O)N2CCN(C(=O)OCC)CC2)C1 (centres undefined)	>57	i
Clc1ccccc1-c1nc(-c2ccncc2)no1	.	i
CCN(CC)c1ccc(NC(=O)c2nc3nc(C)cc(C(F)F)n3n2)cc1	.	i

Molecules from the list above that have a tert-butyl group:
SMILES	Bst PK mod	YjeE inh
CCOc1ccc(S(=O)(=O)N(C)C)cc1-c1nc2c(C(C)(C)C)nn(C)c2c(=O)[nH]1	>26	.
CCSc1nnc(NC(=O)C(C)(C)C)s1	.	i
CC(C)C(NC(=O)OC(C)(C)C)C(=O)N1CCCC1C(=O)NC(Cc1ccccc1)C(N)=O (centres undefined)	>57	i
CC(C)(C)NC[C@H](O)COc1cccc2c1CCC(=O)N2	.	i

The listing continues.
SMILES	Bst PK mod	YjeE inh
CC(=O)Cc1nsc(NC(=O)c2ccc(-c3ccc(Cl)c(C(F)(F)F)c3)o2)n1	>57	i
CSc1nc(-c2ccccc2O)nc(-c2ccccc2O)n1	>57	i
CCCCOc1ccc(C2(C)CC(=O)NC2=O)cc1 (centres undefined)	.	i
CCCCOc1ccc(C(=O)Nn2cnnc2)cc1	>26	.

High-throughput results deposited in PubChem by National Center for Advancing Translational Sciences (NCATS).
